total CFTR = total CFTR protein upregulators, primary screen, cell-based, HeLa F508del-CFTR, immunofluorescence, viability (AID 1224863). HeLa F508del-CFTR, immunofluorescence total CFTR, 24 h; by the record results were divided by relative cell number; some inactives read as strong as hits. calls, or highest fold increase where a dose series was run. 10,000 tested, 0.1% active; in the data nearly all actives have a first-pass fold increase above 1.5; a few of its hits are not listed in these tables;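 note: total CFTR protein by anti-CFTR immunofluorescence in fixed cells; first pass at 25 µM or 10 µg/mL by library and series up to twice that; 1 = untreated cells; first-pass hits also needed half or more of the cells alive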
total CFTR fold 25 µM = second read-out of total CFTR, no call of its own (marks repeat the call); fold increase; measured here: primary screen single dose 25 uM; library dosed in µM
total CFTR fold 10 ug/mL = also measured in total CFTR; calls as there; fold increase; measured here: primary screen 10 ug/mL
total CFTR viability 25 µM = second read-out of total CFTR, no call of its own (marks repeat the call); viability, %; measured here: primary viability 25 uM; library dosed in µM;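 0% = killed and 100% = untreated cells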
total CFTR viability 10 ug/mL = recorded beside total CFTR, whose call it bears; viability, %; measured here: primary viability 10 ug/mL;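 0% = killed and 100% = untreated cells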
* marks the source's active call; other numbers are inactive results; i = inactive; x = not tested or not shown; & = joins results of further samples. A portion of the library; rates above refer to the full screens.

SMILES	total CFTR	total CFTR fold 10 ug/mL	total CFTR viability 10 ug/mL	others
CNCCCC1c2ccccc2C=Cc2ccccc21	i	x	x	total CFTR fold 25 µM=1;total CFTR viability 25 µM=102
COc1cc(OC)c2cc(-c3nc4ccccc4[nH]3)c(-c3cccc([N+](=O)[O-])c3)nc2c1	i	0.98	83
CN(CCCNC(=O)Nc1cccc(N2CCOC2=O)c1)CC(F)(F)F	i	1	101
CC(C)(C)OC(=O)N1CCCC1C(=O)N1CCN(c2nccs2)CC1 (stereo not drawn)	i	1.3	88
CC(C)(C)c1noc(Cn2cc(C(F)(F)F)ccc2=O)n1	i	1.1	105
Cn1c(=O)c2c(ncn2CC(O)COCc2ccc(Cl)cc2)n(C)c1=O (stereo not drawn)	i	0.94	87
CC(CNC(=O)c1cc(C2CC2)[nH]n1)N1CCOCC1 (stereo not drawn)	i	0.97	89
CNCc1csc2ccccc12	i	0.99	99
Cc1nc(N2CCC2)c2c(-c3ccccc3)csc2n1	i	0.89	80
Cc1cc(NC(=O)CSCC(=O)NCCCOC2CCCCC2)no1	i	1.1	100
CCCn1c(=O)n(C)c(=O)c2c(SCc3ccc(C(=O)OC)o3)nc(CC(C)C)nc21	i	1.1	91
CCS(=O)(=O)NC1CCN(CN2C(=O)NC3(CCC(C)CC3)C2=O)CC1 (stereo not drawn)	i	0.97	108
Cc1ccccc1CSC1=C(C#N)C(C)(C)C(C#N)C(=O)N1 (stereo not drawn)	i	0.97	114
N#Cc1ccc(NC2CC2)nc1	i	0.87	90
CNCCCC12CCC(c3ccccc31)c1ccccc12	i	x	x	total CFTR fold 25 µM=1&1.1&1;total CFTR viability 25 µM=88&89&83
CN1CCN(S(=O)(=O)N2CCN(C(=O)c3cc(C4CC4)nn3C(C)(C)C)CC2)CC1	i	0.96	99
O=C(COC(=O)c1cc(-c2ccccn2)nc2ccccc12)c1cc2ccccc2o1	i	1.1	104
CC1(C(=O)Nc2ccc3c(c2)OCCCO3)CC1(Cl)Cl (stereo not drawn)	i	0.94	95
O=C1CCCCC1Sc1nc(C2CC2)nc2c1c(=O)[nH]c(=O)n2C1CC1 (stereo not drawn)	i	1	93
CN(C)C1(CNC(=O)COc2ccc3ccc(=O)oc3c2)CCCCC1	i	0.99	97
CCOC(=O)c1ccc(S(=O)(=O)N2CCN(C(=O)CC3C=CCC3)CC2)o1 (stereo not drawn)	i	0.88	101
CC1CC(C)CN(C(=O)CCn2cnc3c2c(=O)n(C)c(=O)n3C)C1 (stereo not drawn)	i	1	105
CC1Cc2cc(S(N)(=O)=O)ccc2N1Cc1c(F)c(F)c(F)c(F)c1F (stereo not drawn)	i	1.1	99
NCCNC(=O)c1cccs1	i	1.2	107
O=C(NC1CCCC1)C1CC(=O)N(CC(F)(F)F)C1 (stereo not drawn)	i	1.2	100
FC(F)(F)C1CCCN(Cn2nc(N3CCOCC3)n(Cc3ccccc3)c2=S)C1 (stereo not drawn)	i	0.98	94
S=c1nc(-c2cccs2)[nH]n1CN1CCCC1c1nc2ccccc2s1 (stereo not drawn)	i	1.1	105
CC(=O)NCC(=O)NC12CC3CC(CC(C3)C1)C2	i	1	104
CN1CCc2c(c3ccccc3n2Cc2ccccc2)C1	i	x	x	total CFTR fold 25 µM=0.97;total CFTR viability 25 µM=81
N#CCSc1nnnn1Cc1ccccc1	i	0.85	92
Cc1cc(C(=O)COC(=O)C23CC4CC(CC(Cl)(C4)C2)C3)c(C)n1Cc1cccs1	i	0.99	91
CC1CCCN(S(=O)(=O)N2CCC(N3CCCc4ccccc43)CC2)C1 (stereo not drawn)	i	0.89	82
Cc1cccc(-n2c(SCc3ccc(C(C)(C)C)cc3)nc3ccccc32)c1	i	1.1	92
Cc1cc(C(C)(C)C)cc(C)c1S(=O)(=O)NCC1CC1	i	0.87	86
CO[C@H](C(=O)[C@@H](O)[C@@H](C)O)[C@@H]1Cc2cc3cc(O[C@H]4C[C@@H](O[C@H]5C[C@@H](O)[C@H](O)[C@@H](C)O5)[C@@H](O)[C@@H](C)O4)c(C)c(O)c3c(O)c2C(=O)[C@H]1O[C@H]1C[C@@H](O[C@H]2C[C@@H](O[C@H]3C[C@](C)(O)[C@H](O)[C@@H](C)O3)[C@H](O)[C@@H](C)O2)[C@H](O)[C@@H](C)O1	i	x	x	total CFTR fold 25 µM=0.63;total CFTR viability 25 µM=50
Fc1ccc(-c2ccc(-c3nnc4n3CCCCC4)s2)cc1	i	1	88
C#CCNC(=O)OCC(F)(F)F	i	1	80
Cn1cc(/C=C(/C#N)c2nnc(N3CCOCC3)n2-c2ccccc2)cn1	i	1.1	103
O=C1C(=O)N(C23CC4CC(CC(C4)C2)C3)C(=O)N1CCOc1ccccc1	i	0.95	99
Brc1ccc(-c2nnc(CSc3nc4ccccc4s3)o2)o1	i	1	106

19 neighbouring entries already listed, quoted:
SMILES	total CFTR	total CFTR fold 10 ug/mL	total CFTR viability 10 ug/mL	others
CC1CC(C)CN(C(=O)CCn2cnc3c2c(=O)n(C)c(=O)n3C)C1 (stereo not drawn)	i	1	105
CC1Cc2cc(S(N)(=O)=O)ccc2N1Cc1c(F)c(F)c(F)c(F)c1F (stereo not drawn)	i	1.1	99
NCCNC(=O)c1cccs1	i	1.2	107
O=C(NC1CCCC1)C1CC(=O)N(CC(F)(F)F)C1 (stereo not drawn)	i	1.2	100
FC(F)(F)C1CCCN(Cn2nc(N3CCOCC3)n(Cc3ccccc3)c2=S)C1 (stereo not drawn)	i	0.98	94
S=c1nc(-c2cccs2)[nH]n1CN1CCCC1c1nc2ccccc2s1 (stereo not drawn)	i	1.1	105
CC(=O)NCC(=O)NC12CC3CC(CC(C3)C1)C2	i	1	104
CN1CCc2c(c3ccccc3n2Cc2ccccc2)C1	i	x	x	total CFTR fold 25 µM=0.97;total CFTR viability 25 µM=81
N#CCSc1nnnn1Cc1ccccc1	i	0.85	92
Cc1cc(C(=O)COC(=O)C23CC4CC(CC(Cl)(C4)C2)C3)c(C)n1Cc1cccs1	i	0.99	91
CC1CCCN(S(=O)(=O)N2CCC(N3CCCc4ccccc43)CC2)C1 (stereo not drawn)	i	0.89	82
Cc1cccc(-n2c(SCc3ccc(C(C)(C)C)cc3)nc3ccccc32)c1	i	1.1	92
Cc1cc(C(C)(C)C)cc(C)c1S(=O)(=O)NCC1CC1	i	0.87	86
CO[C@H](C(=O)[C@@H](O)[C@@H](C)O)[C@@H]1Cc2cc3cc(O[C@H]4C[C@@H](O[C@H]5C[C@@H](O)[C@H](O)[C@@H](C)O5)[C@@H](O)[C@@H](C)O4)c(C)c(O)c3c(O)c2C(=O)[C@H]1O[C@H]1C[C@@H](O[C@H]2C[C@@H](O[C@H]3C[C@](C)(O)[C@H](O)[C@@H](C)O3)[C@H](O)[C@@H](C)O2)[C@H](O)[C@@H](C)O1	i	x	x	total CFTR fold 25 µM=0.63;total CFTR viability 25 µM=50
Fc1ccc(-c2ccc(-c3nnc4n3CCCCC4)s2)cc1	i	1	88
C#CCNC(=O)OCC(F)(F)F	i	1	80
Cn1cc(/C=C(/C#N)c2nnc(N3CCOCC3)n2-c2ccccc2)cn1	i	1.1	103
O=C1C(=O)N(C23CC4CC(CC(C4)C2)C3)C(=O)N1CCOc1ccccc1	i	0.95	99
Brc1ccc(-c2nnc(CSc3nc4ccccc4s3)o2)o1	i	1	106

Later entries:
SMILES	total CFTR	total CFTR fold 10 ug/mL	total CFTR viability 10 ug/mL	others
CS(=O)(=O)NCc1cc(Cl)c2c(c1)OCCO2	i	0.99	99
O=S(=O)(NC1CCc2ccccc21)c1cccs1 (stereo not drawn)	i	1.1	94
C[C@]12CCC3c4ccc(O)cc4CCC3C1CC[C@@H]2O (stereo partly drawn)	i	x	x	total CFTR fold 25 µM=0.8;total CFTR viability 25 µM=81
O=c1oc2cc(Cl)ccc2n1CN1CCCN(S(=O)(=O)c2ccc(F)cc2)CC1	i	0.93	96
C/C=C/CSc1nnc(-c2cc(OC)cc(OC)c2)o1	i	0.95	90
Nc1ccn([C@@H]2O[C@H](CO)[C@@H](O)C2(F)F)c(=O)n1	i	x	x	total CFTR fold 25 µM=0.98&0.93;total CFTR viability 25 µM=88&91
O=S(=O)(CCSc1nc2ccccc2o1)c1ccc(Br)cc1	i	1.1	79
O=C1CC2(CCCC2)C(=O)N1CN1CCCc2cc(F)c(F)cc21	i	1	102
CC1=C(C(=O)O)N2C(=O)[C@@H](NC(=O)C(N)c3ccccc3)[C@H]2SC1 (stereo partly drawn)	i	x	x	total CFTR fold 25 µM=1.1;total CFTR viability 25 µM=74
Cc1nn2c(nc(NC3CCCN(C)C3)c3ccccc32)c1Cl (stereo not drawn)	1.3	2	72
CCCn1c(SCC(=O)NCCC2=CCCCC2)n[nH]c1=O	i	0.98	100
Cc1cc(NC(=O)C(C)Sc2nnnn2C2CCCC2)on1 (stereo not drawn)	i	1.1	94
O=C(c1cc2cc(Cl)ccc2o1)c1cc(F)ccc1F	i	1	90
Cc1cc(-n2c(C)cc(C(=O)COC(=O)c3ccc4ncsc4c3)c2C)no1	i	0.96	90
Clc1cccnc1N1CCN(C(c2ccccc2)c2ccccc2)CC1	i	0.98	97
CC1CCc2sc(C(=O)N3CCN(C(=O)c4ccco4)CC3)cc2C1 (stereo not drawn)	i	1	91
Cc1nc(N2CCC2)c2c3c(sc2n1)CCCC3	i	1	90
O=S(=O)(CCCO)Cc1cc2c(cc1Br)OCCO2	i	1.1	85
Cc1ccc(-c2noc(CCCSc3nnc(N)s3)n2)cc1F	i	0.94	83
CN(C)S(=O)(=O)N1CCN(C(=O)C2CCC(C(C)(C)C)CC2)CC1 (stereo not drawn)	i	1.1	103
FC(F)Oc1ccc(C2=NNC(=NC3CCCCC3)SC2)cc1	i	0.93	97
C=CCc1ccccc1OCC(O)CNC(C)C (stereo not drawn)	i	x	x	total CFTR fold 25 µM=1&1.1;total CFTR viability 25 µM=89&102
COc1ccc(CSc2nnc(-c3ccoc3C)o2)cc1F	i	1	97
CN1CCc2nc(NC(=O)CN3C(=O)N(C)C4(CCCCC4)C3=O)sc2C1	i	1.1	96
N#CCC(=O)NN	i	x	x	total CFTR fold 25 µM=1.1;total CFTR viability 25 µM=107
C=C1CC2C3C=C(C)C4=CC(=O)CC[C@]4(C)C3CC[C@]2(C)[C@@]1(OC(C)=O)C(C)=O (stereo partly drawn)	i	x	x	total CFTR fold 25 µM=1.1;total CFTR viability 25 µM=71
CC(C)(C)NC[C@H](O)COc1ccccc1C1CCCC1	i	x	x	total CFTR fold 25 µM=1.1;total CFTR viability 25 µM=93
N#C/C(=C/c1ccccc1Br)c1ccccc1	i	1.2	91
CC(C)n1ncc2cc(NS(=O)(=O)c3ccc(Br)cc3Cl)cnc21	i	0.94	82
COc1ccccc1C1=NNC(=Nc2ccc(Cl)cc2Cl)SC1	i	1	92
Cn1c(N2CCN(Cc3csc(-c4ccc(F)cc4)n3)CC2)c(C#N)c(=O)n(C)c1=O	i	0.98	90
O=P(O)(O)C(Cl)(Cl)P(=O)(O)O	i	x	x	total CFTR fold 25 µM=1;total CFTR viability 25 µM=108
CC(=O)c1cc2c(cc1NC(=O)CC1CC3CCC1C3)OCO2 (stereo not drawn)	i	1	96
O=C(/C=C/c1ccco1)N(Cc1cccs1)Cc1cccs1	i	1.1	100
Cn1cnn(CN2CCCN(c3ncc(C(F)(F)F)cc3Cl)CC2)c1=S	i	1.3	92
C=CCNC(C)C	i	1.1	97
O=C1CCCC2=C1C(c1ccc(Cl)cc1Cl)n1nnnc1N2 (stereo not drawn)	i	1	112
CCOc1cc2c(cc1NC(=O)c1ccc(=O)[nH]n1)OC(C)C2 (stereo not drawn)	i	0.93	97
N#CC1(C(=O)Nc2nc3ccccc3s2)CCCC1	i	0.84	96
O=C(Nc1nncs1)C1CCCN(S(=O)(=O)N2CCOCC2)C1 (stereo not drawn)	i	0.94	94
C[C@H]1CC2C([C@@H](O)C[C@@]3(C)C2CC[C@]3(O)C(=O)COC(=O)CCC(=O)O)[C@@]2(C)C=CC(=O)C=C12 (stereo partly drawn)	i	x	x	total CFTR fold 25 µM=0.79;total CFTR viability 25 µM=66
CC(C)=CC1C(C(=O)Nc2cc3c(cc2Cl)OCO3)C1(C)C (stereo not drawn)	i	0.91	84
Cc1ccc(-c2nnn(Cc3cc4c(cc3Br)OCO4)n2)cc1	i	1.1	88
NCCC(=O)N1CCNCC1	i	1.1	106
CN(C)CCCN1C(=O)C(=O)/C(=C(/O)c2ccc(Br)cc2)C1c1cccnc1 (stereo not drawn)	i	1.1	102
CCC(C)N(CC(=O)Nc1sccc1C#N)CC(=O)Nc1sccc1C#N (stereo not drawn)	i	0.88	96
O=C(NCC1(N2CCOCC2)CCCCC1)C1CC=CCC1 (stereo not drawn)	i	0.98	88
O=C(NCCSCc1ccco1)N1CCN(c2ncccn2)CC1	i	1.1	71
CCOCCOc1ccccc1C(N)=O	i	x	x	total CFTR fold 25 µM=0.97;total CFTR viability 25 µM=99
Cc1cc(SCc2nnsc2Cl)nc2ccccc12	i	0.95	88
CC1(C)Oc2ccc(N)cc2O1	i	1.1	87
Cc1ccsc1C(=O)N1CCN(S(=O)(=O)N(C)C2CCCCC2)CC1	i	0.92	83
CN(Cc1ccc(Br)o1)S(=O)(=O)N1CCOCC1	i	1	92
CCN(CC)CCCNC(=O)Nc1cc2c(cc1Br)OCCO2	i	0.97	100
Cc1cc2oc(=O)cc(CN3CCCC3c3cccn3C)c2cc1C (stereo not drawn)	i	0.96	86
O=c1ccc([N+](=O)[O-])cn1Cc1cc(Cl)cc2c1OCOC2	i	1.1	90
CCC1CCc2sc(C(=O)NOC)cc2C1 (stereo not drawn)	i	1.2	84
Nc1ccc(S(=O)(=O)c2ccc(F)cc2)cc1	i	0.95	86
